Mtb growth = M. tuberculosis H37Rv growth inhibitors, H37Rv strain (AID 1626); M. tuberculosis H37Rv growth inhibition; higher % means a stronger effect; inhibition, % at 10 µM, or IC50 in µM where a hit was titrated; 220,000 tested, 0.95% active;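 active = confirmed in a dose series; inconclusive = inhibition above 80% but not taken into the dose series; inactive = below 80% or under 30% at every dose of the series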;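 also: bacteria incubated seven days before Alamar blue readout; 0% = bacteria only wells and 100% = bacteria with antibiotic wells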
Mtb betalactam = beta-lactam sensitization of Mtb H37Rv; M. tuberculosis H37Rv growth with meropenem, percent inhibition; hits of this screen are not shown here; AID 434955; 330,000 tested, 0.27% active; inhibition, % at 25 µM;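 active = about 74% or more and at least 40 points above the plate without the antibiotic, then above 30% in a dose series; inconclusive = first-round hits that could not be retested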;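 also: growth measured after seven days incubation then overnight dye step; 0% = bacteria only wells and 100% = bacteria with antibiotic; twin plates without the antibiotic show which effects depend on it; some results filed as inactive read as strong as hits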
RecA splice inh = inhibitors of M. tuberculosis RecA intein splicing. P9WHJ3. cell-free RecA intein splicing, fluorescence. inhibition, %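 (about 9 µM by stock and volumes)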. 290,000 tested, 0.75% active. AID 2221; in the data active = inhibition above about 30%; inconclusive = no clear call, values can overlap the other calls;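 also: 0% = vehicle wells and 100% = reference inhibitor control wells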
Target sequence (P9WHJ3 whole entry, looked up, canonical isoform): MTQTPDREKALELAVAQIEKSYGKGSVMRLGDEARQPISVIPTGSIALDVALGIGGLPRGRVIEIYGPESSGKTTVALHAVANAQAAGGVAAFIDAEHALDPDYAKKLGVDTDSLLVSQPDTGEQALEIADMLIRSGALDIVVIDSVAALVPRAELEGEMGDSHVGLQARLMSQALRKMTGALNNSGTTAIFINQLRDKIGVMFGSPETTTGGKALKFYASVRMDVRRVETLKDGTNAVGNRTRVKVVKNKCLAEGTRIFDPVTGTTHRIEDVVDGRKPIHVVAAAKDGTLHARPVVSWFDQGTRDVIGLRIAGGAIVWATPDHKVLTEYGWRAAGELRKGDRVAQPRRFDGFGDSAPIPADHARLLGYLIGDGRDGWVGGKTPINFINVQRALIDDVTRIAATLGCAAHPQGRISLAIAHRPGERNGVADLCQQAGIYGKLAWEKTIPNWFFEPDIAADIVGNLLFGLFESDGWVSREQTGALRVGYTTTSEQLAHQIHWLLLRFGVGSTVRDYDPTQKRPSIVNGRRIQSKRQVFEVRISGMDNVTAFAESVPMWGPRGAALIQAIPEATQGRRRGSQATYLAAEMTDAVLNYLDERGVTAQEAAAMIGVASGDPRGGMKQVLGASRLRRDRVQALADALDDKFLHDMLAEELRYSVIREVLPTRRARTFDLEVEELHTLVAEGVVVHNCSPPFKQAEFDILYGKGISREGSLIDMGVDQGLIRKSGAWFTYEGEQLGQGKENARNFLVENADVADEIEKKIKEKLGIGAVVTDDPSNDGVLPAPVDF
YopH PTP inh = blocks Yersinia enterocolitica YopH tyrosine phosphatase. fluorescence Ex485/Em525. inhibition, %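 (about 10 µM by stock and volumes)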. 140,000 tested, 0.16% active. AID 898;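 active = inhibition of 50% or more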;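 also: controls were vehicle for no effect and minimum signal wells for full effect; inactives centre near -20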
Arbovirus inh = blocks arbovirus infection; AID 1251; 200,000 tested, 0.37% active; arbovirus infection cell-based antiviral screen; inhibition, % at 10 µM;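 active = inhibition from about 30%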;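 also: bluetongue infection of BSR cells; cell survival read as ATP light after 72 h; 0% = infected wells without compound and 100% = uninfected wells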
Arbovirus inh repeat = further read-out of Arbovirus inh, marked with its call; inhibition, %; measured here: 10K subset replicate screen; many hits read low in the repeat;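 first of two repeat runs on a subset; 0% = infected and 100% = uninfected wells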
An asterisk follows results filed as active; ? = inconclusive; · = not tested or not shown. A portion of the library; rates above refer to the full screens.

SMILES	Mtb growth	Mtb betalactam	RecA splice inh	YopH PTP inh	Arbovirus inh	others
COc1ccccc1NC(=O)Nc1ccc2c(c1)nnn2C	4%	-14	-0.4	7	0
COC(=O)c1ccc(NC(=S)N2CCC(C(N)=O)CC2)cc1	-7%	7	-2.9	-8	2
C=CCN(CC=C)CCOc1cccc(Oc2ccccc2)c1	74%	8	-2.2	·	5
COc1cccc(Cn2nnc(C(=O)Nc3cc(C)ccc3OC)c2N)c1	-5%	5	5.0	-4	-38
CCCCn1nc(NC(=O)CC(C)C)c2cc3cc(OC)ccc3nc21	·	4	-51	·	·
Cc1ccccc1CSCCNC(=O)COc1ccc(Cl)cc1	-5%	-1	4.1	-22	4
COc1cccc(N2C(=O)CC(N3CCN(C(=O)c4ccco4)CC3)C2=O)c1 (configuration not stated)	-3%	-9	-0.7	-9	4
CSc1ncc(C(=O)Nc2ccccc2F)c(-c2ccccc2)n1	·	2	0.2	·	·
Cc1ccc(Oc2ncccc2COC(=O)Nc2ccccc2C)cc1	·	-3	-3.3	·	14
CCOc1cccc(C(=O)Nc2ccc(N3CCCC3)cc2)c1	·	13	-0.3	·	·
CCC(C(=O)NCc1cccs1)n1nc(C)n2c(cc3occc32)c1=O (configuration not stated)	·	-1	1.3	·	·
Cc1ccc(-n2nc3ccc(N)cc3n2)c(C)c1	·	-3	4.1	·	·
Cc1ccc(CNC(=O)CSc2nc3ccccc3c3nc(C)nn23)cc1	-21%	·	·	-37	6
O=C(c1ccc(CS(=O)c2ccccc2Cl)o1)N1CCN(c2ccccc2)CC1 (configuration not stated)	·	6	-1.1	·	·
O=C(Nc1cccnc1)c1cn(-c2ccccc2)nc1-c1cccs1	11%	10	7.0	-35	-18
CCCOc1ccc(N2C(=O)CC(SCCc3nc4ccccc4[nH]3)C2=O)cc1 (configuration not stated)	-2%	2	-1.0	·	2
O=C(c1cc(Cl)ccc1Cl)N1CCN(c2ccccn2)CC1	-4%	16	-0.7	-24	-13
CCN(CC(=O)NCc1cccs1)C(=O)/C=C/c1cccc(Cl)c1Cl	·	-13	-1.3	·	·
CC(Nc1oc(-c2ccco2)nc1C#N)c1ccccc1 (configuration not stated)	12%	4	2.8	-12	-1
NC(=O)C1(N2CCCCC2)CCN(CC(=O)Nc2cc(Cl)ccc2Cl)CC1	-4%	3	0.3	9	4
COc1ccccc1N1CCN(c2ncnc3nc[nH]c23)CC1	-4%	7	3.7	-9	6
O=C(COC(=O)c1cccnc1Cl)NCc1cccs1	3%	5	-0.9	·	3
CNc1nnc(-c2ccc(OC)cc2)s1	10%	7	11	·	-4
COc1ccc(C(=O)COC(=O)CCNS(=O)(=O)c2ccccc2)c(OC)c1	·	-4	-0.2	·	·
COc1cc(-c2nc(C(=O)NC3CCN(Cc4ccccc4)CC3)cc3c2[nH]c2ccccc23)cc(OC)c1OC	·	95	1.7	·	·
CC(=O)Nc1ccc(C2(O)COc3ccccc3O2)cc1 (configuration not stated)	-2%	2	1.0	-11	-3
CCOC(=O)c1c(NC(=O)Cn2nc(C(=O)O)c3ccccc3c2=O)sc(CC)c1C	4%	11	-5.3	·	-2
COc1ccc(NC(=O)CSc2nnc(-c3ccccn3)n2Cc2ccco2)cc1OC	-1%	5	·	2	1
O=C(CN1C2=NCCN2c2ccccc21)C12CC3CC(CC(C3)C1)C2	14%	-4	-12	-34	-9
O=C(O)c1ccccc1-n1ncc2c1/C(=C/c1ccc(Cl)cc1)CC2	8%	-9	3.6	·	·

Retrieved one by one from the entries so far, two records:
SMILES	Mtb growth	Mtb betalactam	RecA splice inh	YopH PTP inh	Arbovirus inh	others
COC(=O)c1ccc(NC(=S)N2CCC(C(N)=O)CC2)cc1	-7%	7	-2.9	-8	2
CC(Nc1oc(-c2ccco2)nc1C#N)c1ccccc1 (configuration not stated)	12%	4	2.8	-12	-1

(listing goes on)
SMILES	Mtb growth	Mtb betalactam	RecA splice inh	YopH PTP inh	Arbovirus inh	others
COc1ccc(/C=C/C(=O)NCc2ccccn2)cc1	13%	-2	2.4	-34	2
CCOCCCNC(=O)c1cc2c(=O)[nH]c3ccccc3c2s1	·	0	2.5	·	·
CCCCn1c(SCC(=O)NCCOC)nc2ccc(N3CCOCC3)cc2c1=O	-4%	-6	-16	3	0
COc1cccc(C2CC(C(F)(F)F)n3ncc(C(=O)O)c3N2)c1 (configuration not stated)	-3%	-13	-2.5	-12	6
CCOC(=O)c1c(O)c(Cl)c(C)[nH]c1=O	-2%	9	·	·	20
CC(Sc1ccc(Cl)cc1)C(=O)Nc1ccccc1-c1ccccc1 (configuration not stated)	7%	-5	-0.2	-19	0
Cc1cc(C)n(CC(O)COc2cccc(OCC(O)Cn3nc(C)cc3C)c2)n1 (configuration not stated)	9%	1	1.8	-22	6
O=C(NCc1cccnc1)Nc1ccc(Br)cc1	·	4	-0.5	·	·
O=C(NC(Cc1ccccc1)C(=O)O)c1ccc(S(=O)(=O)N2CCCC2)cc1 (configuration not stated)	0%	-8	-0.7	-31	14
CN(C)C(=O)c1ccc(Nc2nnc(-c3ccc(O)cc3)c3ccccc23)cc1	·	8	2.7	·	·
C/C(=N/NC(=O)c1ccoc1C)c1ccc(N2CCOCC2)cc1	0%	1	0.9	-14	-12
COc1ccccc1CCNC(=O)c1ccc(NC(=O)CC2SC(N3CCCC3)=NC2=O)cc1 (configuration not stated)	·	-5	-0.9	·	·
C=CCn1c(-c2ccc(C)cc2)nc2ccccc21	1%	8	2.5	-8	-3
CCN1CCc2nc(NC(=O)Cc3ccc4c(c3)OCCO4)sc2C1	2%	-9	-0.7	-33	1
COc1ccc(OC)c2sc(NC(=O)C3=COCCO3)nc12	7%	2	-0.1	0	-5	Arbovirus inh repeat=-6

By substructure, those above containing a thiophene ring, fused or not
SMILES	Mtb growth	Mtb betalactam	RecA splice inh	YopH PTP inh	Arbovirus inh	others
CCC(C(=O)NCc1cccs1)n1nc(C)n2c(cc3occc32)c1=O (configuration not stated)	·	-1	1.3	·	·
O=C(Nc1cccnc1)c1cn(-c2ccccc2)nc1-c1cccs1	11%	10	7.0	-35	-18
CCN(CC(=O)NCc1cccs1)C(=O)/C=C/c1cccc(Cl)c1Cl	·	-13	-1.3	·	·
O=C(COC(=O)c1cccnc1Cl)NCc1cccs1	3%	5	-0.9	·	3
CCOC(=O)c1c(NC(=O)Cn2nc(C(=O)O)c3ccccc3c2=O)sc(CC)c1C	4%	11	-5.3	·	-2
CCOCCCNC(=O)c1cc2c(=O)[nH]c3ccccc3c2s1	·	0	2.5	·	·

The list goes on:
SMILES	Mtb growth	Mtb betalactam	RecA splice inh	YopH PTP inh	Arbovirus inh	others
C=CCNC(=S)NNC(=O)c1csc(CC)c1	-3%	-13	3.2	-16	-1
CCOc1ncccc1C(=O)NCc1ccccc1	-4%	2	-1.8	-22	-3
CC(C)N(C(=O)Cn1c(Cl)nc2ccccc21)C(C)C	4%	5	1.1	·	6
COc1ccc(-c2cc(C(=O)Nc3ccccc3N3CCOCC3)c3ccccc3n2)cc1OC	4%	-7	0.3	·	5
Cn1nnnc1SCc1cc(=O)n2ccsc2n1	-8%	4	-0.7	-31	11
CC(C)(C)NC(=O)Cn1nnc(-c2ccccc2Cl)n1	-3%	0	-3.1	-16	13
NC(=O)CSc1nccn1Cc1ccc2c(c1)OCO2	-2%	-8	0.5	·	-1
CCn1c(/C=C/N(C(C)=O)c2ccccc2)[n+](CC)c2ccc(Cl)cc21	-3%	1	-0.9	-16	2
Cc1ccc(C(c2sc3ncnn3c2O)N2CC(C)CC(C)C2)cc1 (configuration not stated)	1%	3	4.6	-30	2	Arbovirus inh repeat=5
COc1ccc(N(C(=O)C2CSC(=O)C2)C(C(=O)NC(C)(C)C)c2ccncc2)cc1 (configuration not stated)	-4%	3	3.2	·	2
N/C(=N\OC(=O)COc1ccc(Cl)cc1Cl)c1ccccn1	-2%	-4	-2.7	·	-32
Cc1[nH]nc(SCC(=O)NC2CCCC2)c1[N+](=O)[O-]	9%	-1	-2.6	·	0
COc1ccc(S(=O)(=O)N(C)CC(=O)O)c2ccccc12	1%	1	-0.7	-25	2
C=CCNC(=O)c1onc(CS(=O)(=O)c2cc(C)cc(C)c2)c1C(=O)NCC=C	·	-9	-0.4	·	·
COc1cc(CN2CCCC(C(=O)Nc3cccc(-n4cccn4)c3)C2)ccc1F (configuration not stated)	·	77	1.5	·	·
COc1ccc([C@@H]2C[C@@H](c3ccccc3)Oc3c(C)ccc(C(C)C)c32)cc1	7%	-5	0.8	·	·
Cc1ccc(NC(=O)CN(C)C(=O)c2sc3cc(Cl)ccc3c2Cl)cc1	·	-6	0.5	·	·
COc1ccc(NC(=O)Nc2ccccc2OC)cc1	-7%	6	5.1	-16	-7
O=C(NCCO)c1nc2ccccc2s1	0%	-7	-3.1	-14	4
Cc1cc(C)c2oc(C(=O)Nc3ccc(S(=O)(=O)N4CCCC(C)C4)cc3)cc(=O)c2c1 (configuration not stated)	0%	1	-0.8	-24	-13
Cc1ccc(NC(=O)c2ccc(CSc3nnc(C)s3)cc2)c(C)c1	39%	97	-2.5	-31	6
Cc1cn(C2C=CC(CO)O2)c(=O)[nH]c1=O (configuration not stated)	-5%	-6	-0.2	23	-1
CCN1C(=O)C(O)(C2COC(C)(C)CC2=O)c2cc(Br)ccc21 (configuration not stated)	-4%	4	-0.1	-40	1
N#Cc1ccccc1-n1c(N)c(C(=O)N2CCCC2)sc1=S	·	-4	-4.4	-40	23
NC(=O)NC(=O)COC(=O)CCCc1c[nH]c2ccccc12	·	0	-0.6	7	12
O=C(Cc1ccc(F)cc1)N1CCN(c2ccc(F)cc2)CC1	·	-7	0.5	·	·
CCOC(=O)c1[nH]c(C(=O)O)c(CCN(CC)CC)c1C	-12%	11	0.7	-3	5
COc1ccc(C(=O)C2CCCN(Cc3cn[nH]c3-c3ccccc3)C2)cc1OC (configuration not stated)	-2%	-12	·	·	-5
O=S(=O)(Nc1nc2ccccc2nc1NCCO)c1cccc(Cl)c1	-14%	-5	-1.5	-23	15
Nc1nonc1C(=O)N1CCCCC1	11%	5	-1.0	·	5
O=C(CN1CCN(c2ncccn2)CC1)NCc1ccccc1	5%	0	0.7	-1	1
Cc1nc2nc(C)c(NS(=O)(=O)c3ccc(C4CCCCC4)cc3)c(=O)n2[nH]1	·	-5	-0.4	·	·
CCC1=C2CC[C@H]3C(=O)N(c4ccccc4)C(=O)[C@H]3[C@H]2[C@@]2(C)C(=NCc3ccccc3)OC(=O)N2C1=O	-3%	-7	2.2	·	·
COC(=O)C1=C(CS(=O)(=O)c2ccccc2)NC(=O)NC1c1ccccc1 (configuration not stated)	·	-1	-0.3	·	·
CCN(CC)S(=O)(=O)c1cc(NC(=O)C(C)N2CCN(Cc3ccc4c(c3)OCO4)CC2)ccc1C (configuration not stated)	5%	2	-1.8	-18	-7
COc1ccc(/C=N/NC(=O)c2cccnc2)cc1	·	0	-2.7	·	·
Cc1nonc1NC(=O)Nc1cccnc1	-6%	-3	-2.1	-22	8
CC(=O)Nc1ccc(S(=O)(=O)N2CCN=C2SCc2ccc(C)cc2)cc1	·	?	1.2	·	·
CC(C)(C)c1ccccc1NC(=O)c1ccc2c(c1)SC1=NS(=O)(=O)CCN12	-5%	5	1.0	·	·
COc1ccc(C(=S)N2CCOCC2)cc1OC(=O)c1ccc([N+](=O)[O-])cc1[N+](=O)[O-]	·	86	-1.0	·	·
Cn1cc(C(=O)NP(=O)(N2CCOCC2)N2CCOCC2)c2ccccc21	5%	-10	0.2	·	10
O=C(c1ccc(Cl)cc1)C1CCCN(Cc2ccc(Oc3ncccn3)cc2)C1 (configuration not stated)	-1%	-4	0.0	·	0
CCc1ccccc1N(CC(=O)N1CCc2ccccc2C1)S(C)(=O)=O	·	7	-2.0	·	·
C=CCc1cc(C=O)cc(OC)c1OCc1ccc(Cl)cc1	19%	-1	15	-34	-12
O=C(CN1C(=O)C2CCCCC2C1=O)OCn1nnc2ccccc2c1=O (configuration not stated)	0%	1	-4.9	·	4
O=C(NCC(c1cccs1)N1CCOCC1)c1ccccc1NS(=O)(=O)c1cc([N+](=O)[O-])ccc1Cl (configuration not stated)	5%	-7	-1.6	-10	24
COc1ccc(C(=O)C23CN4CN(CN(C4)C2)C3)cc1	-1%	1	0.8	·	7
O=C(CSc1nccn1-c1ccccc1)c1ccc(Br)cc1	3%	10	1.0	-31	-6
Cc1ccc(-c2nnc(Nc3ccc(C(N)=O)cc3)c3ccccc23)cc1S(=O)(=O)NCC1CCCO1 (configuration not stated)	1%	-3	1.9	-35	-6
COc1ccc(NS(=O)(=O)c2ccc(NC(=O)C(CCSC)NC(N)=O)cc2)cc1 (configuration not stated)	-14%	-2	-6.5	·	·
O=C(CCc1ccccc1)Nc1ccnn1C1CCN(Cc2ncc[nH]2)CC1	·	0	-6.6	·	·
CCOc1cc([N+](=O)[O-])cc2c1C(=O)Nc1ccccc1O2	76%	37	4.6	·	-8
